# Source: PubChem BioAssay
# Beta cell apopt = inhibitors of cytokine-induced beta cell apoptosis, primary screen, luminescence | INS-1E cytokine-induced death, ATP luminescence, 48 h; percent of positive-control rescue, neutral wells zero | protection from apoptosis, % (test concentration not listed) | 300,000 compounds, 0.8% hits;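 active = all replicates at 75% or more, or half of them and the mean; inconclusive = half reach 75% but not the mean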;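 note: 0% = cytokine-treated negative control wells and 100% = positive control rescue; higher means more ATP so stronger rescue from cytokine killing; wells of about 40 µL received 100 nL stock; the first replicate is given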
# A1 inh = caspase 3/7 activation in MEF A1-2A-BIM cells, primary screen, A1 inhibitor project, cell-based, luminescence, HTS; Caspase-Glo 3/7 luminescence, 3 h; percent of clofoctol response, vehicle zero; caspase activation, % (test concentration not listed); 330,000 compounds, 0.066% hits; AID 2462, 2010;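 active = over half of replicate activation scores above 10%, or exactly half above 10 with the replicate mean above 10; inconclusive = replicate mean below 10 yet half the replicates above 10; inactive = over half of replicates below 10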;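 note: wells of about 30 µL received 50 nL stock; many hits fall short of the cut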
# MLL AF4-AF9 inh = inhibitors of AF4 peptide binding to AF9, primary screen, biochemical, AlphaScreen, biotin-AF4 peptide, FLAG-AF9, single point; 350,000 compounds, 0.47% hits; inhibition, % at 10 µM; Protein AF-9 (Homo sapiens), P42568;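 active = every replicate reaching a set inhibition limit, whatever the replicate mean, cut at about 25% in these data; inconclusive = mean inhibition reaches that limit but some replicates miss it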;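 note: 0% = plate neutral control median and 100% = total signal loss; the record names both 10 and 1 µM as test concentration; the first replicate is given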
# Target sequence (P42568 whole entry, looked up): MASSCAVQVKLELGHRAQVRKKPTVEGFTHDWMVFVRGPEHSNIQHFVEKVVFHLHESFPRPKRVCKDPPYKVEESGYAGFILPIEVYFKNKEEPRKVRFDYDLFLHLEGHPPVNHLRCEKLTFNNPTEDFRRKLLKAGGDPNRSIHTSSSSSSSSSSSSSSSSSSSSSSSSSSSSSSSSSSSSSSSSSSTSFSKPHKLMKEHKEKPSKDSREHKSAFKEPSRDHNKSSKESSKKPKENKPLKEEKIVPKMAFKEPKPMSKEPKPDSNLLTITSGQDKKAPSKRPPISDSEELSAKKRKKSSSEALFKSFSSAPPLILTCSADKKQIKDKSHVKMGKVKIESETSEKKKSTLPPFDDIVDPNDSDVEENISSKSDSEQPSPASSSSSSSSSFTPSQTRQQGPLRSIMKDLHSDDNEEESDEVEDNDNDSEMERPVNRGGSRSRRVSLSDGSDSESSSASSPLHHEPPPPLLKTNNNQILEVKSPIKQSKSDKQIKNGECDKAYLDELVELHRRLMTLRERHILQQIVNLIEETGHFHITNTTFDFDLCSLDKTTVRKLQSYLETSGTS
# Vif TR-FRET = inhibitors of Vif binding to APOBEC3G peptide, primary screen, biochemical, TR-FRET, GST-Vif 1-94, biotin-A3G peptide, dose response retest (AID 1117319); Virion infectivity factor (Human immunodeficiency virus type 1 group M subtype B (isolate …; 260,000 compounds, 0.57% hits; inhibition, %; hits with a dose series show IC50 in µM; TR-FRET GST-Vif / biotin-A3G peptide binding; higher % means a stronger effect; test concentration not given here; strong numbers were not always called active;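 active = above the screen mean plus three standard deviations and confirmed in dose response; inconclusive = results disagree or hit not tested in dose response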;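 note: Vif residues 1-94 fused to GST binding biotinylated APOBEC3G peptide 110-148; 0% = full assay without inhibitor and 100% = GST in place of GST-Vif; retest series ran down from 100 µM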
# Ecoli rRNA inh = reduced GFP signal of wild-type E. coli, primary screen, bacterial rRNA inhibitor project, GFP/RFP fluorescence, OD600, single point; 350,000 compounds, 1.6% hits; GFP signal change (wild-type ribosome), % (no concentration beside the values); AID 720706, 2013; E. coli WT GFP vs humanized-ribosome RFP mutants, 24 h; active compounds read low; DMSO median 0, no signal -100;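 active = significant combined selectivity score with lowered wild-type GFP, culture density cut under 30%, mutant RFP and density less affected; inactive = any of these conditions unmet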; note: one replicate is shown; some compounds called inactive have numbers as strong as hits
# Ecoli rRNA inh OD600 = also measured in Ecoli rRNA inh; calls as there; OD600 change, %; measured here: OD600 growth;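 optical density of the mix in the first replicate; 0 = DMSO median and -100 = no signal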
# Ecoli rRNA inh RFP = second read-out of Ecoli rRNA inh, no call of its own (marks repeat the call); RFP signal change, %; measured here: RFP humanized mutant strains;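 first replicate; 0 = DMSO median and -100 = no signal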
# Active calls of the source: *; u = inconclusive; x = no result given; & = joins results of further samples. A portion of the library; the hit share may differ from the screen's.
compound,Beta cell apopt,A1 inh,MLL AF4-AF9 inh,Vif TR-FRET,Ecoli rRNA inh,Ecoli rRNA inh OD600,Ecoli rRNA inh RFP
Cc1cc(N2CCNC[C@@H]2C)ccc1N1CCN[C@@H](C)C1,x,x,x,x,16,19,3.9
O=C(c1ccccc1)N1Cc2cc(Br)ccc2-n2nncc2C1,x,x,x,x,11,17,1.8
C=CCN1CC[C@]23c4c5ccc(O)c4OC2[C@H](O)CC[C@@]3(O)[C@H]1C5 (stereo partly specified),x,x,x,x,9,7,0.5
CCN(C)C(C)Cc1cccc(C(F)(F)F)c1 (stereo unspecified),x,x,x,x,2,1,-0.8
COC(=O)C1C(OC(=O)c2ccccc2)CC2CCC1[N+]2(C)C (stereo unspecified),x,x,x,x,18,17,3.9
CC1C2Cc3ccc(O)cc3C1(C)CCN2CC1CC1 (stereo unspecified),x,x,x,x,2,-10,-0.3
CN1CC[C@@H]2CN[C@H](c3ccccc3Br)C[C@@H]21,x,x,x,x,21,24,5.5
CC[C@]12CCN(CC3(O)CC3)C(Cc3ccc(O)cc31)C2(C)C,x,x,x,x,12,8,1.9
CC(C)NC(=O)N1C[C@@H]2C(c3ccccc3)[C@H](C1)N2CC1CC1 (stereo partly specified),x,x,x,x,0&6,5&15,0.0&1.0
C/C=C/c1ccc(C2[C@H]3CNC[C@@H]2N3CC2CCCCC2)cc1 (stereo partly specified),x,x,x,x,7,24,-0.8
CCCN1CCC[C@@H](c2cccc(O)c2)C1,-2,0.0,-0.2,x,x,x,x
CCCn1c(C)c(C(=O)c2cccc3ccccc23)c2ccccc21,-3,0.0,0.9,x,x,x,x
CC[C@H]1C2C[C@H]3[C@@H]4N(C)c5ccccc5C45C[C@H](C2[C@H]5O)N3[C@@H]1O (stereo partly specified),2,0.2,1.6,x,x,x,x
O=c1[nH]oc2c1CCNC2,2,0.3,-1.5,x,x,x,x
C/C=C1/C[N+]2(C)CCC34C(=C(C=O)[C@H]1C[C@@H]32)Nc1ccccc14 (stereo partly specified),2,-0.1,-2.4,x,x,x,x
NC1CCc2cc(O)c(O)cc2C1 (stereo unspecified),4,-0.4,7.9,x,x,x,x
C[N+](C)(C)CCOC(=O)CBr,0,-1.6,-5.1,x,x,x,x
CCCCC(CC)COC(=O)c1ccccc1C(=O)OCC(CC)CCCC (stereo unspecified),0,0.0,-18,x,x,x,x
CC(C)[C@@H]1NC(=O)c2cc([N+](=O)[O-])cc(I)c2NCCCC[C@@H](C(=O)NC(CC(=O)O)C(N)=O)NC(=O)[C@H](CO)NC1=O (stereo partly specified),x,x,x,u,x,x,x
CC1=CC(O)C(O)C2(C)C1CC1OC(=O)C(O)C3C(C)C(O)C4(O)OCC13C42 (stereo unspecified),x,x,x,-1%,x,x,x
O=C(COc1ccc(Br)cc1)N1CCN(Cc2ccncc2)CC1,x,x,x,13%,x,x,x
CC1=CC(O)C(O)C2(C)C1CC1OC(=O)CC3C(C)C(O)C(=O)C2C13CO (stereo unspecified),x,x,x,5%,x,x,x
C1CCC2CCCCC2C1 (stereo unspecified),-8,0.2,x,x,4,8,-1.4
COC(C)(C)CCCC(C)C/C=C/C(C)=C/C(=O)OC(C)C (stereo unspecified),6,-0.7,x,x,5,3,3.2

# A section of the results above, for reference:
compound,Beta cell apopt,A1 inh,MLL AF4-AF9 inh,Vif TR-FRET,Ecoli rRNA inh,Ecoli rRNA inh OD600,Ecoli rRNA inh RFP
CCCCC(CC)COC(=O)c1ccccc1C(=O)OCC(CC)CCCC (stereo unspecified),0,0.0,-18,x,x,x,x
CC(C)[C@@H]1NC(=O)c2cc([N+](=O)[O-])cc(I)c2NCCCC[C@@H](C(=O)NC(CC(=O)O)C(N)=O)NC(=O)[C@H](CO)NC1=O (stereo partly specified),x,x,x,u,x,x,x

# Later entries.
compound,Beta cell apopt,A1 inh,MLL AF4-AF9 inh,Vif TR-FRET,Ecoli rRNA inh,Ecoli rRNA inh OD600,Ecoli rRNA inh RFP
N#C/C=C/C#N,-3,-0.4,x,x,3,10,-0.3
BrCCc1ccccc1,8,0.3,x,x,1,8,0.2
CC(C)(Cl)[N+](=O)[O-],-1,0.8,x,x,3,1,24
Nc1ccccc1Cl,-6,0.4,x,x,3,-3,-0.5
COC(=O)C1=C(c2cccc(C#N)c2)C[C@@H]2CC[C@H]1N2C(=O)NCc1cc(C)oc1C(F)(F)F,-11,u,x,x,0,-2,1.0
c1ccc(Nc2ccc(Nc3ccccc3)cc2)cc1,4,0.4,x,x,-14,-20,-3.3
c1ccc(OCC2CO2)cc1 (stereo unspecified),-5,0.3,x,x,3,-7,-2.8
Oc1ccc(Cl)c(Cl)c1Cl,3,0.0,x,x,0,2,0.0
CCOP(=S)(OCC)SCCSCC,-1,-0.3,x,x,3,1,0.2
CN(C)N=O,1,0.3,x,x,5,2,0.4
N#C/C(N)=C(/N)C#N,-3,0.5,x,x,4,5,1.1
Cc1ccc(O)c(C)c1,0,0.3,x,x,6,6,1.0
O=S(=O)(c1ccc(Cl)cc1)c1ccc(Cl)cc1,-3,-0.6,x,x,3,-4,3.1
ClC(Cl)(Cl)c1ccccc1,-4,-0.4,x,x,4,4,0.4
CN1c2ccc(Br)cc2[C@@H]2NCC[C@@H]2[C@@H]1CO,x,x,-2.6&1.3,x,13,27,2.8
C=CC1CN2CCC1CC2C(O)c1ccnc2ccccc12 (stereo unspecified),x,x,-0.6,x,-10,0,-7.4

# 3 of these compounds, set out differently.
# Every second line gives: Beta cell apopt	A1 inh	MLL AF4-AF9 inh	Vif TR-FRET	Ecoli rRNA inh	Ecoli rRNA inh OD600	Ecoli rRNA inh RFP
Cc1ccc(O)c(C)c1
 : 0	0.3	x	x	6	6	1.0
O=S(=O)(c1ccc(Cl)cc1)c1ccc(Cl)cc1
 : -3	-0.6	x	x	3	-4	3.1
ClC(Cl)(Cl)c1ccccc1
 : -4	-0.4	x	x	4	4	0.4

# (continued)
compound,Beta cell apopt,A1 inh,MLL AF4-AF9 inh,Vif TR-FRET,Ecoli rRNA inh,Ecoli rRNA inh OD600,Ecoli rRNA inh RFP
COc1ccc(OC(=O)N(C)C[C@H]2OCc3ccccc3-c3c(n(C)c4ccccc34)C(=O)N([C@@H](C)CO)C[C@H]2C)cc1,x,x,-0.4,x,2,-5,1.2
CS(=O)(=O)c1ccc(C2=C(CNC(=O)c3nccs3)[C@H]3CC[C@@H](C2)N3Cc2ccco2)cc1,x,x,-2.7,x,15,8,3.9
CCOC(=O)[C@]12Cc3cc(Cl)ccc3[C@H]1N(C)C(=O)c1cc(OC)ccc12,x,x,-0.9,x,-44,-82,-18
CCOC(=O)[C@]12Cc3cc(N(C)C)ccc3[C@H]1N(Cc1ccccc1)C(=O)c1ccccc12,x,x,10,x,-1,0,-2.5
Cc1cc(Br)cn2c(CC(=O)N3CCCCC3)c(-c3ccc(F)cc3)nc12,x,x,-1.6,x,17,20,2.8
Cc1cccc2nc(-c3ccccc3)c(-c3ccc(CN4CCC(n5c(=O)[nH]c6ccccc65)CC4)cc3)nc12,x,x,0.2,x,11,24,0.3
CC=Cc1ccc2n(c1=O)C[C@@H]1[C@@H](CO)[C@H](C(=O)OC)[C@H]2N1S(=O)(=O)c1cccc(C)c1 (mixture of isomers),x,x,1.9,x,1,0,-1.7
O=C(NCCN1CCC2(CC1)C(=O)NCN2c1ccccc1)c1cc(C(F)(F)F)ccc1C(F)(F)F,x,x,-3.7,x,4,-11,5.1
COC(=O)[C@@H]1[C@@H](CO)[C@@H]2Cn3c(ccc(-c4cccnc4)c3=O)[C@H]1N2S(=O)(=O)c1ccccc1F,x,x,-1.8,x,0,4,-0.6
O=S(=O)(c1cc(Cl)cc(Cl)c1)N1Cc2cc(-c3cccc(F)c3)ccc2-n2nncc2C1,x,x,-1.4,x,13,9,5.4
O=C(Cc1ccccn1)N1CCCCN2[C@@H](CO)[C@@H](c3ccc(C#Cc4ccccc4)cc3)[C@@H]2C1,x,x,5.2,x,-59,-76,-15
O=C(O)[C@H]1[C@H](CO)[C@H]2Cn3c(ccc(-c4ccncc4)c3=O)[C@@H]1N2S(=O)(=O)c1ccccc1F,x,x,-5.6,x,2,4,-1.0
Cc1ccccc1-c1ccc([C@H]2[C@@H](CO)N3CCCCN(C(=O)Cc4ccccn4)C[C@H]23)cc1,x,x,0.4,x,-31,-67,-5.1
CCOC(=O)[C@]12Cc3ccccc3[C@H]1N(C1CCCCC1)C(=O)c1cc(OC)ccc12,x,x,1.6,x,-52,-76,-14
CN(C)CC#Cc1ccc([C@@H]2[C@H](CO)N3CCCCN(C(=O)Cc4ccccn4)C[C@@H]23)cc1,x,x,-2.8,x,3,11,-2.4
O=C1NCN(c2ccccc2)C12CCN(C(c1cccs1)c1nnnn1C1CCCCC1)CC2 (stereo unspecified),x,x,8.3,x,-1,-7,3.8
CCOC(=O)[C@]12Cc3cc(Cl)ccc3[C@H]1N(Cc1ccccc1)C(=O)c1cc(OC)ccc12,x,x,-3.9,x,-31,-40,-9.9
CCC(=O)Nc1ccc(Cl)c(Cl)c1,x,x,-4.8,x,-7,-24,-10
CN(C)CC#Cc1ccc([C@@H]2[C@H]3CN(C(=O)Cc4ccccn4)CCCCN3[C@H]2CO)cc1,x,x,3.2,x,2,1,2.0
COc1ccc(-n2nnnc2C(CCSC)N2CCC(n3c(=O)[nH]c4ccccc43)CC2)cc1 (stereo unspecified),x,x,5.6,x,-6,-13,3.9
COc1ccc(-c2ccc3c(c2)CN(C(=S)NCCc2ccccc2)Cc2cnnn2-3)cc1,x,x,-1.1,x,4,19,-2.5
S=C(NCCc1ccccc1)N1Cc2ccc(Br)cc2-n2nncc2C1,x,x,1.1,x,-20,-35,1.3
O=C(Cc1ccccc1)N1CCCCN2[C@H](CO)[C@H](c3ccc(C#Cc4ccccc4)cc3)[C@@H]2C1,x,x,-7.0,x,3,5,-0.3
CCCNC(=O)[C@@H]1[C@@H](CO)[C@@H]2Cn3c(cccc3=O)[C@H]1N2CCC,x,x,-2.2,x,3,3,1.4
O=C(O)[C@@H]1[C@@H](CO)[C@@H]2Cn3c(ccc(C4=CCCCC4)c3=O)[C@H]1N2C(=O)Cc1ccccn1,x,x,2.4,x,0,0,-2.4
O=C(Cc1cccnc1)N1CCCCN2[C@@H](CO)[C@H](c3ccc(/C=C/c4ccccc4)cc3)[C@@H]2C1,x,x,9.7,x,-54,-74,-7.2
O=C(O)[C@@H]1[C@@H](CO)[C@@H]2Cn3c(ccc(-c4ccncc4)c3=O)[C@H]1N2S(=O)(=O)c1ccccc1F,x,x,-2.9,x,4,5,2.7
COC(=O)[C@@H]1[C@@H](CO)[C@@H]2Cn3c(ccc(-c4cncnc4)c3=O)[C@H]1N2S(=O)(=O)c1ccccc1C,x,x,0.6,x,3,2,-2.0
O=C(CCc1ccccc1)N1Cc2cc(-c3ccccc3)ccc2-n2nncc2C1,x,x,-1.5,x,-15,-23,-3.2
N#C/C(=C\c1cccc(O)c1)C(=O)O,x,x,-4.6,x,12,7,-0.6
COc1cc(C2c3cc4c(cc3CC3COC(=O)C32)OCO4)cc(OC)c1OC (stereo unspecified),x,x,0.5,x,-7,-2,-3.5
COC(=O)C1=C(C(=O)OC)SC2(S1)C(C(=O)OC)=C(C(=O)OC)Sc1c2ssc1=O,x,x,-31,x,-23*,-4.2*,7.7*
COc1cc(C(=O)N2Cc3ccc(Br)cc3-n3nncc3C2)cc(OC)c1OC,x,x,-0.5,x,0,-3,2.4
COc1ccc(C#Cc2ccc([C@@H]3[C@H]4CN(C(=O)Cc5cccnc5)CCCCN4[C@H]3CO)cc2)cc1,x,x,-5.0,x,-57,-71,-8.1
